Assay outcomes deposited in PubChem BioAssay by several laboratories.
Bfl-1 A1 inh = caspase 3/7 activation in MEF A1-2A-BIM cells, primary screen, A1 inhibitor project, cell-based, luminescence, HTS | AID 2462, 2010 | Caspase-Glo 3/7 luminescence, 3 h; percent of clofoctol response, vehicle zero | 330,000 compounds, 0.066% hits | caspase activation, % (concentration not given with the values);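 active = over half of replicate activation scores above 10%, or exactly half above 10 with the replicate mean above 10; inconclusive = replicate mean below 10 yet half the replicates above 10; inactive = over half of replicates below 10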;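 also: wells of about 30 µL received 50 nL stock; many hits fall short of the cut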
LANA-H2A inh = blockers of LANA interaction with H2A/H2B – biochemical, FP readout, HTS, primary screen; inhibition, % (no concentration beside the values); Protein LANA1 (Human herpesvirus 8 type P (isolate GK18)), Q9QR71; AID 2629, 2010; 320,000 compounds, 0.6% hits; cell-free LANA-H2A/H2B peptide, fluorescence polarization; in the data active = inhibition mostly above about 10%, no sharp cut-off; inactive = mostly below about 6.7%;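 also: stock transfer was 7.5 nL into about 10 µL; 0% = median of vehicle wells and 100% = median of positive control wells; one replicate is shown; the record names a cut of 25% in any replicate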
AF4-AF9 inh = inhibitors of AF4 peptide binding to AF9, primary screen, biochemical, AlphaScreen, biotin-AF4 peptide, FLAG-AF9, single point; Protein AF-9 (Homo sapiens), P42568; inhibition, % at 10 µM; 350,000 compounds, 0.47% hits;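 active = every replicate reaching a set inhibition limit, whatever the replicate mean, cut at about 25% in these data; inconclusive = mean inhibition reaches that limit but some replicates miss it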;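 also: 0% = plate neutral control median and 100% = total signal loss; the record names both 10 and 1 µM as test concentration; the first replicate is given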
Target sequence (P42568 whole entry, looked up): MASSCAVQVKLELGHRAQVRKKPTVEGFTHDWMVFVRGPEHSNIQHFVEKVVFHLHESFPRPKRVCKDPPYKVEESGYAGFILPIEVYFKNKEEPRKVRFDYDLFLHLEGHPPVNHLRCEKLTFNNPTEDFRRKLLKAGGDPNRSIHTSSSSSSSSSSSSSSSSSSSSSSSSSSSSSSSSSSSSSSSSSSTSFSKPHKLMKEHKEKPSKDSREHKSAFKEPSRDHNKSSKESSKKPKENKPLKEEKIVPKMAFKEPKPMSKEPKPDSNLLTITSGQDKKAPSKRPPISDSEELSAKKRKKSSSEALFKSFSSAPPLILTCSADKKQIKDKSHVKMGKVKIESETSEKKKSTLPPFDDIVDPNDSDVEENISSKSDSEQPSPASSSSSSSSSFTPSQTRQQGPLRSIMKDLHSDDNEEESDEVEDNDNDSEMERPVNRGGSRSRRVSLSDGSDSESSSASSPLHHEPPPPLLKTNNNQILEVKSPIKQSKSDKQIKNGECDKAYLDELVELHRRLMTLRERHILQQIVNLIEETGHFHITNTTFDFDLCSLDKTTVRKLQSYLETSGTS
Calb FLC = C. albicans growth inhibition with fluconazole, primary screen, CaCi-2 strain, Alamar Blue fluorescence; C. albicans CaCi-2 (fluconazole-resistant clinical isolate) + fluconazole, 48 h; growth inhibition, % (no concentration beside the values); 300,000 compounds, 0.57% hits;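 active = most replicates above 75%; inconclusive = exactly half above 75%; inactive = most below 75%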;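 also: all wells also contain fluconazole at 8 µg/ml as a sub-toxic cotreatment; 0% = median of DMSO wells and 100% = median of geldanamycin control wells; wells of about 8 µL received 7.5 nL stock; the first replicate is given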
Beta cell apopt = inhibitors of cytokine-induced beta cell apoptosis, primary screen, luminescence; INS-1E cytokine-induced death, ATP luminescence, 48 h; percent of positive-control rescue, neutral wells zero; protection from apoptosis, % (test concentration not listed); 300,000 compounds, 0.8% hits; AID 435005, 2010;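 active = all replicates at 75% or more, or half of them and the mean; inconclusive = half reach 75% but not the mean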;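 also: 0% = cytokine-treated negative control wells and 100% = positive control rescue; higher means more ATP so stronger rescue from cytokine killing; wells of about 40 µL received 100 nL stock; the first replicate is given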
T cruzi inh = inhibitors of intracellular T. cruzi growth, primary screen, luminescence, NIH3T3 host cells. T. cruzi beta-gal in NIH3T3, 90 h. inhibition, % (no concentration beside the values). 300,000 compounds, 1.4% hits. AID 1885, 2009;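 active = mean inhibition across valid replicates above about 55%, limit read from the data; inconclusive = mean below that limit but half or more replicates reach it; inactive = mean below it, under half of replicates reach it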;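 also: signal also drops with host cell toxicity which is not excluded here; 0% = plate median of DMSO wells and 100% = zero luminescence signal; higher percent means less beta-gal luminescence so fewer parasites; stock transfer was 50 nL into about 50 µL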
Vif A3G = inhibitors of Vif binding to APOBEC3G peptide, primary screen, biochemical, TR-FRET, GST-Vif 1-94, biotin-A3G peptide, dose response retest (AID 1117319); Virion infectivity factor (Human immunodeficiency virus type 1 group M subtype B (isolate …; TR-FRET GST-Vif / biotin-A3G peptide binding; higher % means a stronger effect; test concentration not given here; strong numbers were not always called active; one-dose inhibition, %; IC50 in µM for titrated hits; 260,000 compounds, 0.57% hits;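 active = above the screen mean plus three standard deviations and confirmed in dose response; inconclusive = results disagree or hit not tested in dose response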;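 also: Vif residues 1-94 fused to GST binding biotinylated APOBEC3G peptide 110-148; 0% = full assay without inhibitor and 100% = GST in place of GST-Vif; retest series ran down from 100 µM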
RanGTP-Impb inh = inhibitors of RanGTP-importin-beta interaction, primary screen, biochemical, FRET, CFP-Ran, YFP-importin-beta, homogeneous; Ran GTPase (GTP-bound) - importin-beta complex; cell-free CFP-Ran/YFP-importin-beta FRET ratio; inhibition, % (no concentration beside the values); 300,000 compounds, 1.1% hits; AID 2216, 2009;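 active = most replicates above 15%; inconclusive = exactly half above 15%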;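 also: 0% = DMSO wells and 100% = Ran loaded with GDP instead of GTP; wells of about 40 µL received 100 nL stock; the first replicate is given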
An asterisk follows results filed as active; ? = inconclusive; / = no result given. Not a hit list; any-hit rate near 4.3%.

SMILES	Bfl-1 A1 inh	LANA-H2A inh	AF4-AF9 inh	Calb FLC	Beta cell apopt	T cruzi inh	Vif A3G	RanGTP-Impb inh
COC(=O)[C@@]12CCCCN1[C@H](c1ccc(-c3cc(C(C)=O)cs3)cc1)[C@H]1C(=O)N(C)C(=O)[C@H]12	1.2	1.0	-0.3	13	24	-13	/	1.4
Nc1cnn(Cc2ccccc2F)c1	-0.3	2.2	16	18	-3	11	0%	-1.5
Cc1cc(C)cc(N2CC34C=CC(O3)C(C(=O)OCC(=O)NCc3ccco3)C4C2=O)c1 (stereo not drawn)	-0.1	-3.1	/	-2	-7	-7	0%	-4.5
COCc1ccc(-c2c(-c3ccsc3)sc3ccccc23)cc1	0.9	2.6	-0.5	/	-2	/	/	/
CC1CCCCC1NC(=O)CCCN1C(=O)c2ccccc2C1=O (stereo not drawn)	1.0	-0.9	-2.8	/	-2	/	/	/
O=C(N/N=C/c1c(F)cccc1Cl)c1ccc(Cn2cc(Br)cn2)o1	0.3	-0.3	/	-7	-1	-3	/	4.5
O=C(Nn1c(Cc2cccs2)nc2ccccc2c1=O)c1ccc(F)c(F)c1	0.3	1.3	/	13	-9	-2	-6%	4.6
CCOC(=O)Cn1cc(C#N)c(=O)[nH]c1=O	0.6	-3.5	-3.6	-2	-7	-7	/	0.1
CC(Oc1cc2oc(=O)c3c(c2cc1Cl)CCCC3)C(=O)NCc1ccncc1 (stereo not drawn)	-1.1	-1.1	-1.0	?	10	5	/	-0.9
CCCCOc1ccc(C(C)NC(=O)C2CCCN(S(=O)(=O)CCC)C2)cc1 (stereo not drawn)	-0.7	1.5	/	-1	-2	-8	-3%	2.0
CC(C)C(NS(=O)(=O)c1ccc2c(c1)Cc1cc(S(=O)(=O)NC(C(=O)O)C(C)C)ccc1-2)C(=O)O (stereo not drawn)	1.0	-2.1	-12	-6	1	-8	-3%	5.5
COCCn1c(SCC(=O)Nc2ccccc2F)nc2c([nH]c3ccccc32)c1=O	0.5	0.2	-1.2	/	6	7	68%	/
Cc1ccc(S(=O)(=O)N2[C@@H](c3cccc(C)c3)C(C(=O)O)=C[C@H]2C(C)(C)C)cc1	0.0	-3.6	-1.7	/	-1	/	0%	/
COc1ccc(OC)c(S(=O)(=O)N2CCC3(CC2)CC(=O)c2ccccc2O3)c1	-1.5	-1.0	0.4	-16	-2	19	6%	-1.1
Oc1ccc(C[C@H]2CNCCN2CCC23CC4CC(CC(C4)C2)C3)cc1	2.4	1.0	6.7	-22	11	-5	/	6.6
O=C(CN1CCCCCC1)Nc1ccccc1Cl	-2.6	0.8	-0.8	-10	/	-1	/	-3.0
COc1cc(-c2n[nH]c(=S)n2-c2cc(C(F)(F)F)ccc2Cl)cc(OC)c1OC	2.1	-0.2	/	9	5	13	17%	3.4
Cc1cccc(NC(=O)CN2CCN(C(=O)c3c(C)nn(Cc4ccccc4)c3C)CC2)c1C	-1.0	4.1	-0.8	/	-4	/	/	/
Cc1c(Cl)ccc(S(=O)(=O)NCCN2CCOCC2)c1Cl	0.8	2.4	1.4	16	/	3	7%	0.5
O=C(NCc1ccccc1)/C(=C\c1ccc([N+](=O)[O-])cc1)NC(=O)c1ccco1	0.8	2.6	1.7	4	-11	2	/	-10
COC(=O)C1=C(C)N(Cc2ccccc2)C(=NCC(C)C)N[C@H]1c1ccccc1	-1.4	0.2	/	-25	11	35	/	4.0
N#CC(C#N)=C1CCc2ccccc2N1	0.7	3.8	/	0	1	-10	-12%	0.9
c1ccc(-c2nnc3sc(-c4csc5c4CCCC5)nn23)cc1	-0.7	-1.9	/	0	63	20	9%	0.8
O=S(=O)(c1ccc(N2CCOCC2)cc1)N1CCOCC1	-1.6	-2.7	/	6	-4	-5	-1%	5.6
COc1cccc2cc(C(=O)N3CCN(C45CC6CC(CC(C6)C4)C5)CC3)c(=O)oc12	-0.3	2.2	/	3	2	2	5%	53*
CC(Oc1ccc2c(-c3ccccc3)cc(=O)oc2c1)C(=O)NC(Cc1c[nH]c2ccccc12)C(=O)O (stereo not drawn)	-0.4	2.1	-56	/	0	/	-3%	/
CCc1nn(CC(=O)O)c(=O)c2ccccc12	0.5	-3.2	-21	5	2	-3	-8%	2.2
N=c1oc2ccc(Cl)cc2cc1C(=O)NC1CCCCCC1	-0.6	-14	1.3	-9	-4	-25	1%	3.1
OC1CCN(c2ncnc3c2nnn3Cc2c(F)cccc2Cl)CC1	-1.3	5.0	/	-4	0	15	2%	3.2
O=C(COC(=O)Cc1ccc(-c2ccccc2)cc1)NCc1ccc(F)cc1	0.3	1.5	/	-2	-7	-15	/	0.9
Clc1cccc(-c2nnc(SC/C=C/c3ccccc3)n2Cc2ccco2)c1	0.6	6.2	10	6	-3	3	8%	/
CCOc1ccc(S(=O)(=O)N2CCC(C(=O)NCc3ccco3)CC2)cc1C	0.1	-3.3	-2.4	-1	-6	-7	/	-1.8
Cc1ccc(CNS(=O)(=O)c2ccc(Br)s2)cc1	0.2	9.4	-1.2	-7	-8	-9	7%	2.2
COc1ccc(-c2cc3nc(-c4ccccc4)cc(N4CCC(O)CC4)n3n2)cc1	-0.7	0.5	/	-13	17	48	/	3.2
O=C1CC(c2ccccc2)CC(O)=C1C=NCCCO (stereo not drawn)	0.5	6.1	/	-3	-2	-4	-3%	2.9
CCCc1cc(=O)oc2cc(OCC(=O)NCC(O)c3ccccc3)ccc12 (stereo not drawn)	0.5	-1.2	-8.2	-5	-3	2	/	0.3
CC(=O)c1ccc(N(CC(=O)NC2CCCCC2)C(=O)CNC(=O)c2cccs2)cc1	0.1	1.4	-13	-3	-1	3	/	6.3
COc1ccccc1C(=O)NC(=O)Nc1nc(-c2ccccc2)cc(C(F)(F)F)n1	1.8	-1.4	0.3	-1	-3	13	-15%	0.3
CCCn1c(=O)c2ccccc2n2c(SCC(=O)c3ccccc3)nnc12	0.2	0.1	-1.6	9	8	18	-2%	-1.3
Cc1ccc(S(=O)(=O)NCC(=O)OCC(=O)N(C)C2CCCCC2)cc1	-1.8	-2.0	-16	/	-3	/	-2%	/
Cc1cccc(NC(=O)CC2C(=O)NC3CCCCC3N2C(=O)c2ccccc2Cl)c1 (stereo not drawn)	0.1	2.1	-1.7	-2	-9	-12	-8%	-6.3
O=C(NCCNC(=O)c1cccs1)c1ccco1	0.9	2.1	/	2	/	-11	-2%	-2.2
COc1cc(C2Nc3ccc4ncccc4c3C3=C2C(=O)CCC3)ccc1O (stereo not drawn)	0.7	3.1	/	14	-25	-29	28%	0.7
COCCN(C(=O)C1CCCO1)c1c(N)n(CC(C)C)c(=O)[nH]c1=O (stereo not drawn)	0.3	0.3	2.3	/	-6	/	-6%	/
CCc1nc2sc3c(c2c(=S)[nH]1)CC(C)(C)OC3	/	/	1.7	11	/	-15	-8%	-2.7
CC1CCCCN1CCNC(=O)C1CCCN(S(=O)(=O)c2cccc3nsnc23)C1 (stereo not drawn)	0.3	-5.1	7.1	23	-6	10	3%	2.8
Cc1nc(SCC(=O)Nc2c(C)n(C)n(-c3ccccc3)c2=O)[nH]c(=O)c1C	-0.5	-3.5	/	45	-15	0	/	-0.6
CCOc1ccccc1N1CCN(S(=O)(=O)CC)CC1	0.7	-2.6	/	1	-6	-9	8%	-0.8
O=C(CSc1nncn1-c1ccccc1)NC1CCCC1	-0.3	6.0	-1.8	/	-2	2	5%	/
CC(=O)c1cc(F)c(N2CCCCCC2)cc1C	1.2	-7.9	/	-58	0	17	4%	-0.4
Cc1nnsc1C(=O)NC(C)c1ccccc1 (stereo not drawn)	0.1	-3.7	-4.1	-3	-1	3	9%	-3.9
Cc1c(NC(=O)CSc2nnc3sc4ccccc4n23)c(=O)n(-c2ccccc2)n1C	0.1	0.0	/	8	5	-10	0%	-3.9
NC(=O)N/N=C/c1coc2ccc3ccccc3c2c1=O	-0.4	-3.0	-1.8	16	2	-25	-10%	-6.2
COCCn1c(SCC(=O)N2CCCC2)nnc1C(C)C	2.2	1.5	/	-9	-2	-6	11%	4.3
COc1ccccc1C(=O)N/C(=C/c1cccc([N+](=O)[O-])c1)C(=O)Nc1cccc(C(=O)O)c1	0.6	-2.3	-0.9	26	/	1	17%	-2.8
CS(=O)(=O)c1cccc(C(=O)NC(c2ccccc2)c2ccccc2)c1	-0.7	2.1	/	1	-8	-1	11%	3.4
CC(OC(=O)c1cnc2ccccc2n1)c1ccccc1Cl (stereo not drawn)	0.6	3.8	4.8	-1	-1	-7	/	-5.7
COc1ccc(-n2cnc3cc(NCc4ccccn4)ccc32)cc1	0.6	-2.1	11	2	16	16	3%	10
Cc1ccc2cc(C#N)c(N3CCCN(C(=O)C4CCCO4)CC3)nc2c1 (stereo not drawn)	0.1	-5.3	/	?	-9	-10	6%	18*
O=C1CN(C(=O)N[C@@H](Cc2ccccc2)C(=O)N[C@@H](Cc2ccccc2)C(=O)O)c2ccccc2N1	1.5	-0.9	-1.8	-2	/	-1	/	7.4

A different layout for 5 compounds above.
Results follow in this order: Bfl-1 A1 inh, LANA-H2A inh, AF4-AF9 inh, Calb FLC, Beta cell apopt, T cruzi inh, Vif A3G, RanGTP-Impb inh
> CC1CCCCN1CCNC(=O)C1CCCN(S(=O)(=O)c2cccc3nsnc23)C1 (stereo not drawn)
  0.3, -5.1, 7.1, 23, -6, 10, 3%, 2.8
> Cc1nc(SCC(=O)Nc2c(C)n(C)n(-c3ccccc3)c2=O)[nH]c(=O)c1C
  -0.5, -3.5, /, 45, -15, 0, /, -0.6
> CCOc1ccccc1N1CCN(S(=O)(=O)CC)CC1
  0.7, -2.6, /, 1, -6, -9, 8%, -0.8
> O=C(CSc1nncn1-c1ccccc1)NC1CCCC1
  -0.3, 6.0, -1.8, /, -2, 2, 5%, /
> CC(=O)c1cc(F)c(N2CCCCCC2)cc1C
  1.2, -7.9, /, -58, 0, 17, 4%, -0.4

(continued)
SMILES	Bfl-1 A1 inh	LANA-H2A inh	AF4-AF9 inh	Calb FLC	Beta cell apopt	T cruzi inh	Vif A3G	RanGTP-Impb inh
O=C(CSc1ncnc2sccc12)N1CCN(C(=O)c2cccs2)CC1	0.0	4.1	-1.0	/	-6	/	/	/
Cn1c(=O)n(C)c(=O)n(CC(=O)N2CCCCC2)c1=O	-1.1	4.3	/	1	-6	-5	?	1.9
O=[N+]([O-])c1cc(CN2CCCC2)ccc1Sc1ccc(Cl)cc1	0.3	-3.2	34*	-19	-2	62*	-4%	19*
CS(=O)(=O)N1CCN(C(=O)c2cc(-c3cccnc3)nc3ccc(Cl)cc23)CC1	-0.6	0.0	-3.6	3	-4	-5	-5%	4.2
